Sa growth 42C = S. aureus growth inhibition at 42 and 30 °C, primary screen, LtaS inhibitor project, RN4220, two temperatures | relative growth, % (no concentration beside the values) | hit rate 0.53% among 170,000 | OD600, 20 h, 42 °C; stronger effect = lower value;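 active means growth at 42 °C up to 50% and 20 or more points under that at 30 °C, or under 10% at both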;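 further: 300 nL library stock went into each well; scaled to the means of positive and negative controls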
HCMV NEC inh = inhibitors of HCMV UL50-UL53 interaction, biochemical, HTRF; HCMV UL50-UL53 nuclear egress complex (human cytomegalovirus); hit rate 0.15% among 190,000; AID 1918969, 2023; normalized percent inhibition; inhibition, % (concentration not given with the values);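 active means both replicates at 50% or more, plus weaker picks with an unusually low signal ratio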;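 further: stock transfer was 100 nL into about 20 µL; 0% = negative control wells and 100% = wells with untagged competitor protein; inactives centre near -12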
GIV-Gai inh = inhibitors of GIV peptide binding to Galpha-i3, primary screen, biochemical, fluorescence polarization, FITC-GIV GBA peptide, rat Galphai3. Guanine nucleotide-binding protein G(i) subunit alpha-3 (Rattus norvegicus), P08753. 90 min; stronger effect = lower value; scaled: aluminum fluoride 0%, vehicle 100%. percent of control (FP), % (concentration not given with the values). hit rate 0.42% among 210,000. AID 1224905, 2016;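 active means replicate mean at 85% of control or lower, very high polarization wells dropped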;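 further: wells of about 15 µL received 100 nL stock; the first replicate is given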
Target sequence (P08753 whole entry, looked up): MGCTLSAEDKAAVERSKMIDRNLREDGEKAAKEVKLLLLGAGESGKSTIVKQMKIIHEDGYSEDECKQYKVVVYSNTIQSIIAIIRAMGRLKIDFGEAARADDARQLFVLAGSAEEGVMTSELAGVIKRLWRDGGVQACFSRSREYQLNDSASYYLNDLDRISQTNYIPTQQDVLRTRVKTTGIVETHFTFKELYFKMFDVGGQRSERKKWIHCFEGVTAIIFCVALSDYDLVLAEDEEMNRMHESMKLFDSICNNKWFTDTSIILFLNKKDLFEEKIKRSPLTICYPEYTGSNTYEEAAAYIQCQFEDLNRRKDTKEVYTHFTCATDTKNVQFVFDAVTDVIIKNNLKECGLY
Sa growth 42C second temp = also measured in Sa growth 42C; calls as there; relative growth, %; measured here: growth at 30 °C;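 optical density after 20 h as mean of two plates; 100% = untreated growth and lower means inhibition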
Starred values were filed as active, the others as inactive; . = not tested or not shown.

mol	Sa growth 42C	Sa growth 42C second temp	HCMV NEC inh	GIV-Gai inh
Cc1cc(NC(=O)CCN2C(=O)/C(=C/c3ccc4c(c3)OCO4)SC2=S)no1	.	.	-29.2	108.7
O=C(CN1CCCN(Cc2cccc(F)c2)S1(=O)=O)Nc1ccc2c(c1)OCO2	.	.	-10.1	92.6
Cn1c(CCNC(=O)c2cnc(N3CCOCC3)nc2)nc2ccccc21	108.2	90.3	-24.5	107.1
CC(C)(C)NC(=O)Cn1c(=O)oc2ccc(Cl)cc21	87.7	80.9	-4.9	102.3
O=C(CSc1nnc(CN2CCCC2)n1Cc1ccccc1)Nc1ccccc1	83.5	82.7	-10.2	.
CCOC(=O)Cc1csc(SCC(=O)c2ccc3c(c2)OCCO3)n1	79.8	90.4	-36.2	.
CC1CCCN(c2nc3nonc3nc2Nc2cccc(Cl)c2)C1 (centres undefined)	23.6	21.3	-1.4	101.8
CCOc1ccc2c(c1)cc(C(=O)N1CCOCC1)n2C	.	.	-8.2	100.4
CCN(CC)C(=S)Nc1cc(C(=O)OC)ccc1C(=O)OC	114.0	84.1	.	105.6
COc1ccc(CC(=O)O)cc1OC	107.7	92.1	.	99.9
Cn1ncc(C(=O)O/N=C(\N)c2ccccc2)c1-n1cccc1	95.8	82.5	-24.2	101.8
CCOC(=O)c1cnc(SCC(=O)c2ccc(Cl)c(C)c2)nc1N	105.4	91.4	.	99.9
C1=CCC(CN2CCN(Cc3ccccc3)CC2)CC1 (centres undefined)	88.8	96.5	-23.5	104.3
CCOC(=O)c1c(C)[nH]c(NC(=O)NC2CCCCC2)c1C	.	.	-23.6	99.7
COc1ccc(C2Nc3ccccc3C(=O)N2NS(C)(=O)=O)cc1OC (centres undefined)	100.8	95.0	3.9	100.0
COc1ccc(NC(=O)CSc2ncccc2C(=O)O)cc1OC	104.8	86.9	.	98.8
Cc1ccc(C)c(-n2nnnc2SCC(=O)OC(C)c2nc3sc(C)c(C)c3c(=O)[nH]2)c1 (centres undefined)	79.4	92.4	-31.3	.
COC(=O)CNC(=O)N1CCn2cccc2C1Cc1ccccc1 (centres undefined)	97.7	88.4	-12.0	111.1
Nc1nnc(CC(=O)N2CCCCC2)o1	102.7	88.5	.	103.5
Cc1nc(SCC(=O)O)[nH]c(=O)c1CCC(C)C	99.8	99.3	-7.5	114.0
CNC(=O)c1ccsc1NC(=O)c1ccc(OC)c(OC)c1	84.9	79.6	-26.3	105.9
COc1ccccc1-c1cc(C(=O)N2CCCN(c3ccc(=O)n(-c4ccccc4)n3)CC2)[nH]n1	.	.	-16.2	102.9
CSc1ccccc1NC(=O)COC(=O)/C=C/c1ccc(F)cc1	101.2	86.9	-25.2	.
Cc1nn2c(-c3ccc4c(c3)OCO4)ccnc2c1-c1ccc(F)cc1	.	.	-23.3	106.4
CSc1cccc(NC2=CC(=O)CC(C)(C)C2)c1	80.8	90.8	-17.5	.

Three entries from above, ordered by the value under GIV-Gai inh, falling:
SMILES	Sa growth 42C second temp	GIV-Gai inh
Cn1c(CCNC(=O)c2cnc(N3CCOCC3)nc2)nc2ccccc21	90.3	107.1
CCOC(=O)c1cnc(SCC(=O)c2ccc(Cl)c(C)c2)nc1N	91.4	99.9
O=C(CN1CCCN(Cc2cccc(F)c2)S1(=O)=O)Nc1ccc2c(c1)OCO2	.	92.6

Additional entries follow:
mol	Sa growth 42C	Sa growth 42C second temp	HCMV NEC inh	GIV-Gai inh
O=c1c2ccccc2n2c(=O)n(Cc3ccccc3Cl)nc2n1Cc1ccccc1	.	.	6.2	105.1
CC(CC(=O)O)S(=O)(=O)c1ccc(Cl)cc1 (centres undefined)	107.0	72.2	-4.3	95.6
O=C(O)CCn1ccc2ccccc21	96.0	91.1	-4.1	.
O=S(=O)(c1ccccc1)N1CCC(Cc2ccccc2)CC1	100.8	97.8	1.4	.
CSc1nc2sc3c(c2c2nnc(SCC(=O)Nc4ccccc4)n12)CC(C)(C)OC3	79.2	86.2	0.8	103.7
CCOc1cc(CNCCSc2nnnn2C)cc(Cl)c1OCc1ccccc1	.	.	-9.9	97.0
CSc1nc2c(cnn2-c2ccccc2)c(=O)n1N	95.2	83.8	-8.7	.
Cn1cc(NC(=O)NCc2ccccn2)c2ccccc2c1=O	79.6	91.4	-7.6	100.0
CCN1C(SCC(=O)N2CCCC2)=NS(=O)(=O)c2ccccc21	.	.	-34.5	106.5
COC(=O)C1C(=O)OC(C)(C)C2CCC(C)CC12 (centres undefined)	105.9	84.8	-13.8	99.8
CC(=O)OC(C(=O)N(Cc1ccccc1)c1ccccc1)c1ccccc1 (centres undefined)	144.3	99.2	-5.4	106.4
O=C(CSc1nc(=O)n(Cc2ccccn2)c2c1CCC2)N1CCCCC1	98.2	96.2	-11.6	103.1
O=C(CSc1nc2ncccc2n2cccc12)NCCc1ccccc1	.	.	-17.8	112.1
O=C(Nc1cc(F)ccc1F)c1cc(-c2cccnc2)on1	.	.	-1.3	97.4
CN(C)C(=O)COc1ncnc2ccccc12	100.7	88.5	-9.0	.
Cc1nc2sc3c(c2c(=O)o1)CCCCC3	.	.	-24.8	103.1
COc1ccc2c(c1)c(CC(=O)Nc1c(C)cccc1C)c(C)n2C(=O)c1ccc(Cl)cc1	95.5	85.5	-21.6	107.8
CCN(CC)C(=S)SCc1ccc(C(=O)O)cc1	106.0	93.6	.	97.3
O=S1(=O)N=C(Oc2ccccc2Cl)c2ccccc21	109.7	100.8	-2.4	98.7
COC(=O)c1c(C)nn(-c2ccccc2)c1-n1c(C)ccc1C	114.5	83.5	.	102.9
CCOC(=O)/C(C#N)=C/c1ccc2c(c1)Sc1ccccc1N2C	92.7	88.5	-19.2	.
CC(C)C1C(=O)CC(c2ccccc2)NC1c1ccccc1 (centres undefined)	82.6	85.5	.	100.8
COc1ccccc1N1CCN(C(=O)C2CCN(S(=O)(=O)Cc3ccccc3)CC2)CC1	110.2	88.1	-12.2	105.7
COc1ccc(Cl)cc1C(=O)Nc1ccc(-c2nc3cc(Cl)ccc3o2)c(O)c1	.	.	-33.8	97.5
O=C(NC1CCCCC1)C1c2cccn2CC(=O)N1C1CC1 (centres undefined)	.	.	-20.8	102.1
Cc1noc(C)c1S(=O)(=O)NCCN1CCC(Cc2ccccc2)CC1	97.2	84.8	-5.7	102.6
Cc1cccc(N2CCN(c3nc4ccccc4c4nnc(C)n34)CC2)c1C	114.6	96.2	1.7	108.1
COc1cc(C2CC(=O)Nc3nc(N)[nH]c(=O)c32)ccc1OCc1ccc(Cl)cc1 (centres undefined)	.	.	-12.2	98.8
CCc1ccc(-c2nc(-c3cc4ccccc4oc3=O)sc2C)cc1	104.8	101.4	.	107.4
Cc1ccsc1C1C(C#N)=C(N)Oc2nc(-c3ccccc3)[nH]c21 (centres undefined)	108.4	74.8	.	97.4
O=c1[nH]c(Nc2ccccc2)cc2ccccc12	86.8	66.6	110.4*	-60.5*
c1cncc(-c2cccnc2)c1	62.3	64.0	.	98.7
CCc1nnc(SCc2cc(=O)n3ccccc3n2)c2cc3occc3n12	98.3	95.8	-28.7	108.9
CCc1ccc(NC(=O)C(=O)NCCN2CCN(C(=O)c3ccco3)CC2)cc1	.	.	-14.8	104.8
c1ccc(-c2cc(-c3ccccc3)c(N3CCCC3)nn2)cc1	93.9	99.0	-16.0	102.1
O=C(Nc1ccc(N2CCOCC2)c2nonc12)c1cc2ccccc2oc1=O	101.2	103.8	-6.9	102.6
CCOc1ccc2nc(NC(=O)c3nc(SCc4ccccc4F)ncc3Cl)sc2c1	93.5	90.9	-17.8	99.6
Cc1cc(C)c(-c2n[nH]c3c2C(c2ccccc2F)N(CC2CCCO2)C3=O)c(O)c1 (centres undefined)	.	.	-15.5	105.5
CCc1ccc(NC(=O)CSc2nc3c(sc4ccccc43)c(=O)n2CCCOC(C)C)cc1	113.7	93.1	.	106.3
O=C(O)COc1ccc(C(=O)Cc2ccc3c(c2)OCCCO3)c(O)c1	85.3	91.8	-8.0	109.3
CC(C)(C)c1cc(C(F)(F)F)n2ncnc2n1	111.1	96.3	.	98.3
O=C(O)C1CCCN1c1nc(-c2ccccc2)c2cc(Br)ccc2n1 (centres undefined)	.	.	-40.6	103.7
CCn1c(Cc2ccccc2)n[nH]c1=S	111.7	96.7	-18.1	106.0
O=C(NCCCN1CCc2ccccc2C1)NCc1ccccc1	100.7	85.3	-11.5	99.8
COC(=O)c1c[nH]n2c(=O)c(Cc3ccc(F)cc3Cl)c(C)nc12	106.2	83.6	.	102.2
Cc1[nH]c(C(=O)N2CCC(CC(=O)NCc3ccccc3)CC2)c(C)c1C(=O)OC(C)C	.	.	-11.3	105.9
Cc1cccc(-c2nn3c(C)nnc3s2)c1	.	.	-70.6	107.9
CC1=C/C(=N\NC(=O)CCN2CCN(c3ccccc3)CC2)CC1	122.8	93.9	15.5	.
O=C(NCc1ccc2c(c1)OCO2)c1ccc(N2CCCC2=O)cc1	116.5	92.0	.	99.4
O=c1cnnc(N/N=C/C=C/c2ccccc2)[nH]1	95.5	87.4	-57.8	95.7

(continued)
mol	Sa growth 42C	Sa growth 42C second temp	HCMV NEC inh	GIV-Gai inh
CC(C1CC1)n1nccc1NC(=O)c1ccc(S(=O)(=O)N(C)C)cc1 (centres undefined)	101.3	91.0	-10.5	.
O=C(COC(=O)C1=NNC(=O)CC1)NCC1CCCCC1	94.2	89.5	-15.3	.
O=C(O)c1cnc(-c2ccccc2)nc1-c1ccccc1	.	.	8.2	100.1
c1ccc(-c2cc(N3CCOCC3)cs2)cc1	97.7	94.6	-7.4	.
CC1(C)Cc2c(sc3nc(SCC(=O)O)n(Cc4ccccc4)c(=O)c23)CO1	.	.	-14.8	105.8
COc1ccc(C)cc1-n1nnnc1SCC(=O)N(CC(C)C)CC(C)C	120.7	94.8	-15.1	.
CC1=C(C#N)C(C)C2=C(CC(C)(C)CC2=O)N1 (centres undefined)	113.9	59.3	-18.2	96.7
Cc1ccc(S(=O)(=O)Nc2cc3c(C(=O)OCc4ccccc4)c(C)oc3c3ccccc23)c(C)c1	102.8	86.6	-43.1	106.4
CCOc1ccc(NC(=O)CCNS(=O)(=O)c2ccc(Br)s2)cc1	104.8	92.9	.	106.6
O=C1CCCN1C(=O)CSc1nc2c(Cl)cc(Cl)cc2[nH]1	92.9	92.9	-9.3	.
COC(=O)Cn1cc(C(=O)c2cccs2)c2ccccc21	109.2	85.5	-15.3	102.1
COc1cc(NC(=O)CN2C(=O)COc3ccc(S(=O)(=O)N4CCCCC4)cc32)cc(OC)c1	114.7	78.4	.	105.6
COCC(=O)n1nc(-c2ccccc2)nc1NCc1ccccc1	87.0	92.0	.	100.7
CCN1c2cc(C)ccc2-n2cccc2C12CCN(S(=O)(=O)c1ccc3c(c1)oc(=O)n3C)CC2	.	.	-12.0	100.2
O=C1C2ON(c3ccccc3)C(/C=C/c3ccccc3)C2C(=O)N1c1ccc(Br)cc1 (centres undefined)	67.1	72.0	-14.4	.
COc1cccc(-c2nn(C)c3sc(C(=O)NCc4cc(OC)ccc4OC)cc23)c1	99.7	86.8	-8.0	107.5
COC(=O)c1cccc(NC(=O)c2cnccn2)c1	96.5	85.4	-9.9	.
Cc1noc(C)c1CCNC(=O)CCCc1nnc(C(=O)Nc2ccccc2)s1	.	.	-34.7	98.9
O=C1CC(O)(C(F)F)Oc2ccccc21 (centres undefined)	87.8	82.0	-10.8	106.7
Cc1onc(-c2ccccc2)c1-c1csc(-c2ccno2)n1	88.2	80.6	-17.9	108.8
COC(OC)c1ccc(C#N)c(SCC(=O)c2ccc(C)cc2)n1	100.0	81.9	-126.1	109.4
Nc1nc(SCc2cccc3ccccc23)n[nH]1	113.1	54.2	-35.8	104.5
CN(C)CC(C)(C)CNC1CC2CCC1C2 (centres undefined)	106.5	107.5	-7.1	99.1
O=C(COc1nnc2c(n1)Nc1ccccc1S2)N1CCCc2ccccc21	73.4	93.8	-31.8	.
Cc1[nH]n(-c2ccccc2)c(=O)c1N=O	103.8	47.2	37.9*	.
CNC(=O)CCCc1cn(Cc2ccc(C)cc2)c2ccccc12	91.8	80.8	.	98.3
CCOC(=O)CN(C)C1=NS(=O)(=O)c2ccccc21	102.4	100.4	-6.3	101.2

An excerpt of these results, as labelled records:
> CC1(C)Cc2c(sc3nc(SCC(=O)O)n(Cc4ccccc4)c(=O)c23)CO1
  Sa growth 42C: . | Sa growth 42C second temp: . | HCMV NEC inh: -14.8 | GIV-Gai inh: 105.8

> COc1ccc(C)cc1-n1nnnc1SCC(=O)N(CC(C)C)CC(C)C
  Sa growth 42C: 120.7 | Sa growth 42C second temp: 94.8 | HCMV NEC inh: -15.1 | GIV-Gai inh: .

> CC1=C(C#N)C(C)C2=C(CC(C)(C)CC2=O)N1 (centres undefined)
  Sa growth 42C: 113.9 | Sa growth 42C second temp: 59.3 | HCMV NEC inh: -18.2 | GIV-Gai inh: 96.7

> Cc1ccc(S(=O)(=O)Nc2cc3c(C(=O)OCc4ccccc4)c(C)oc3c3ccccc23)c(C)c1
  Sa growth 42C: 102.8 | Sa growth 42C second temp: 86.6 | HCMV NEC inh: -43.1 | GIV-Gai inh: 106.4

Screening data deposited in PubChem BioAssay by ICCB-Longwood Screening Facility, Harvard Medical School.
